Compound activity from PubChem.
RE007 growth inh – qHTS Assay for Inhibitors of the HIV-1 protein Vpr; S. pombe RE007 Vpr strain, BacTiter-Glo ATP luminescence, 24 h; control for the full effect not named in the record; Potency, µM (top dose mostly 92.2 µM), without a hit: at the highest dose activity change, negative = less growth; actives 0.21% (n = 360,000); active = well fitted falling curve with a large enough effect; inconclusive = small, poorly fitted or top-dose-only effect; inactive = no such curve, though single readings can be large or run the other way;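 further: on the % scale 0 is the no-effect control and ±100 the full control effect; nearly all actives have a fitted effect of over 50% in size; the assay follows cell death caused by Vpr and the record does not say whether a fall means rescue or toxicity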
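Fission yeast strain RE007, carrying one chromosomally integrated HIV-1 vpr copy, was seeded at OD 0.01 in PMG+AL medium with 23 nL pinned compound. After 24 h at 30 °C and 99% humidity, viability was read by BacTiter-Glo luminescence.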
Cruzain inh Det – qHTS Assay for Promiscuous and Specific Inhibitors of Cruzain (with detergent). Cruzipain (Trypanosoma cruzi), P25779. purified cruzain, Z-FR-AMC fluorescence, 0.01% Triton. Potency, µM, for inactives: max response, negative = inhibition, usual class: inhibitors. actives 0.43% (n = 200,000). AID 1478, 2009; active means well fitted curve in the direction sought with a large enough effect; inconclusive means small, poorly fitted or top-dose-only effect, or another doubt; inactive means no such curve, though single readings can be large; an effect the other way counts as inactive or inconclusive;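 further: plate controls were neutral wells for no effect and buffer without enzyme for full effect; nearly all actives have a fitted effect of over 40% in size; top concentration of the series not given in the record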
Target sequence (P25779 123-467 limits assumed): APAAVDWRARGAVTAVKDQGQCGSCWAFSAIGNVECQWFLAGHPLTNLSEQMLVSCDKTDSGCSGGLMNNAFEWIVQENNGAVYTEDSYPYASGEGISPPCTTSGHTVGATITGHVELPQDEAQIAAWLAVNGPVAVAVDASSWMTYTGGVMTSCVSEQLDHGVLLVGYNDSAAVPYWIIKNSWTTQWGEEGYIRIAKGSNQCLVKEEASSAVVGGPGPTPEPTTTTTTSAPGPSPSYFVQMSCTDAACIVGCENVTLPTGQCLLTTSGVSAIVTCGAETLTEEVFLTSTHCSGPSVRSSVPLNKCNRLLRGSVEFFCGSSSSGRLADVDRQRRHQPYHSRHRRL
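Sodium acetate buffer (100 mM, pH 5.5) containing 5 mM DTT and 0.01% Triton X-100 hosted 1.5 nM cruzain and test compound for 15 min at room temperature. Cleavage of 2 uM Z-FR-AMC was then tracked by fluorescence.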
NS1 inh – qHTS Assay for Inhibitors of Influenza NS1 Protein Function | S. cerevisiae slowed by influenza A NS1, growth recovery by OD600 | Potency, µM (top dose mostly 46.1 µM), inactives show at the highest dose activity, positive = more growth | actives 0.4% (n = 270,000) | AID 2326, 2010; further: actives are rising curves; nearly all actives have a fitted effect of over 50% in size
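In this qHTS, NS1 from influenza A is expressed in budding yeast, where it slows growth. Cells are switched from glucose to 2% galactose medium (pH 6.0, -URA), treated with compound, and growth recovery is read at OD600.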
MARV entry inh – qHTS for inhibitors of binding or entry into cells for Marburg Virus; actives 1.8% (n = 300,000); Potency, µM (top dose mostly 37.8 µM), without a hit: at the top dose activity change, negative = inhibition, hits mostly inhibitors; Marburg virus pseudotyped entry inhibition, cell reporter; control for the full effect not named in the record; about a third of the inactives were read at about 46 µM; active = well fitted inhibition curve with a large enough effect; inconclusive = small, poorly fitted or top-dose-only effect, or effect the other way; inactive = flat fitted curve, though single readings scatter; tested in HEK293 cells; about a fifth of its hits are not listed in these tables; further: on the % scale 0 is the no-effect control and ±100 the full control effect; luciferase read-out
SARS PLpro yeast – qHTS of Yeast-based Assay for SARS-CoV PLP | actives 0.19% (n = 330,000) | Potency, µM (series often up to 32.9 µM), for the others: at the top dose activity, positive = growth rescue | S. cerevisiae expressing SARS-CoV PLpro, growth rescue; control for the full effect not named in the record; further: 0% is about no effect; nearly all actives have a fitted effect of over 55% in size; growth read by luminescence after 48 h
Cruzain inh noDet – qHTS Assay for Promiscuous and Specific Inhibitors of Cruzain (without detergent); Potency, µM, for the others: max response, negative = inhibition, usual class: inhibitors; purified cruzain, Z-FR-AMC fluorescence, no detergent; actives 2.3% (n = 200,000); active means well fitted curve in the direction sought with a large enough effect; inconclusive means small, poorly fitted or top-dose-only effect, or another doubt; inactive means no such curve, though single readings can be large; an effect the other way counts as inactive or inconclusive;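 further: plate controls were enzyme without inhibitor for no effect and buffer without enzyme for full effect; nearly all actives have a fitted effect of over 40% in size; top concentration of the series not given in the record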
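Purified cruzain at 1.5 nM, pre-incubated 15 min with compound at room temperature in 100 mM sodium acetate pH 5.5, 5 mM DTT, 0.00005% Triton X-100. Reaction started with 2 uM Z-FR-AMC; AMC fluorescence increase over 60 s gives rate.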
StopGo reporter – High Throughput Screening for Foot and Mouth Disease Virus Antivirals. human cells with a luciferase reporter of 2A StopGo recoding; control for the full effect not named in the record. Potency, µM (highest dose often 57.9 µM), for the others: at the highest dose signal change, negative = less light. actives 1.2% (n = 410,000); active = well fitted falling curve with a large enough effect; inconclusive = small, poorly fitted or top-dose-only effect; inactive = no such curve, though single readings can be large or run the other way; tested in HEK293T cells; further: on the % scale 0 is the no-effect control and ±100 the full control effect; nearly all actives have a fitted effect of over 45% in size; luciferase light after 4 h
Lassa entry inh – qHTS for Inhibitors of binding or entry into cells for Lassa Virus; AID 540256, 2011; Potency, µM (titrated, usually from 37.9 µM), for the others: top-dose activity change, negative = inhibition, hits mostly inhibitors; Lassa virus pseudotype entry inhibition, cell reporter; control for the full effect not named in the record; actives 1.2% (n = 300,000); active means well fitted inhibition curve with a large enough effect; inconclusive means small, poorly fitted or top-dose-only effect, or effect the other way; inactive means flat fitted curve, though single readings scatter; tested in HEK293 cells; further: on the % scale 0 is the no-effect control and ±100 the full control effect; nearly all actives have a fitted effect of over 50% in size; luciferase read-out
The depositor's hits bear a star; ? = inconclusive; . = no result given; & = joins results of further samples; [ ] = dose if it differs, or a comment. Unless noted, the call rests on the fitted dose curve; in most records, active means well fitted rising curve with a large enough effect; inconclusive means small, poorly fitted or top-dose-only effect; inactive means no such curve, though single readings can be large or run the other way. Potency means the concentration at half of the fitted maximal effect.

Key to letters – A = RE007 growth inh; B = Cruzain inh Det; C = NS1 inh; D = MARV entry inh; E = SARS PLpro yeast; F = Cruzain inh noDet; G = StopGo reporter; H = Lassa entry inh
SMILES: O=C(O)c1nn2cc(CCO)cnc2c1Cl
  A = 3%; B = .; C = 4%; D = 11%; E = 0%; F = .; G = -2%; H = 20%[46.1 µM]
SMILES: CCOC(=O)c1c(C)[nH]c(C)c1S(=O)(=O)NCCc1cccs1
  A = 14%; B = .; C = 1%; D = .; E = 5%; F = .; G = 108%[activator]; H = .
SMILES: CC(=O)Nc1ccc(S(=O)(=O)N2CCN(CCN3CCOCC3)CC2)cc1Cl
  A = -9%; B = .; C = 5%; D = .; E = -3%; F = .; G = 4%; H = .
SMILES: CN(C(=O)COC(=O)c1ccc(Br)o1)c1c(N)n(Cc2ccccc2)c(=O)[nH]c1=O
  A = -2%; B = .; C = .; D = 6%; E = 11%; F = .; G = -1%; H = 15%
SMILES: CCCCNC(=O)c1cccc2c(=O)c(C)c(-c3ccccc3)oc12
  A = -28%; B = 1.1%; C = -3%; D = -23%; E = 9%; F = -3%; G = 0%; H = ?
SMILES: CS(=O)(=O)c1ccc(Cl)c(NC(=O)COC(=O)CNC(=O)c2ccccc2)c1
  A = 4%; B = .; C = .; D = ?; E = 3%; F = .; G = 5%; H = 14%
SMILES: CC/C(=N\NC(=O)c1ccc2c(c1)OCO2)c1ccccc1
  A = -1%; B = .; C = -4%; D = .; E = 7%; F = .; G = 30%[activator]; H = .
SMILES: O=C(CSc1ccc(F)cc1)N1CCN(S(=O)(=O)c2ccccc2)CC1
  A = -4%; B = .; C = 2%; D = .; E = 1%; F = .; G = -6%; H = .
SMILES: CC(Sc1nnc(-c2ccccc2)c(-c2ccccc2)n1)C(=O)Nc1ncc(Cl)cc1Cl (stereo unspecified)
  A = 17%; B = -0.5%; C = -23%; D = ?; E = -10%; F = ?; G = ?; H = -2%
SMILES: C=CCn1c(SCC(=O)Nc2cc(NC(C)=O)ccc2OC)nnc1-c1ccccn1
  A = -6%; B = 9.6%; C = -3%; D = -2%; E = 8%; F = -8%; G = -15%; H = ?
SMILES: O=C(Nc1ccc2c(c1)OCO2)c1cc2n(n1)C(C(F)(F)F)CC(c1ccccc1)N2 (stereo unspecified)
  A = -5%; B = -0.7%; C = -10%; D = 20%; E = -4%; F = -3%; G = -13%; H = 10%
SMILES: CCO[C@H]1OC(C(=O)N2CCOCC2)=C[C@@H](c2ccccc2)[C@@H]1CCCO
  A = 12%; B = .; C = 2%; D = .; E = -1%; F = .; G = -17%; H = .
SMILES: Cc1ccc(C(=O)Cc2cc3ccccc3oc2=O)c(C)c1
  A = 8%; B = .; C = -1%; D = .; E = -1%; F = .; G = 73%[activator]; H = .
SMILES: CCCCn1c(N)c(N(CCC(C)C)C(=O)C2CC(=O)N(c3ccc(OC)cc3OC)C2)c(=O)[nH]c1=O (stereo unspecified)
  A = 2%; B = .; C = .; D = 0%; E = 0%; F = .; G = -1%; H = -1%
SMILES: CC(=O)N1c2ccc(S(=O)(=O)N3CCC(C(=O)Nc4ccccn4)CC3)cc2CC1C (stereo unspecified)
  A = -2%; B = .; C = 4%; D = .; E = 2%; F = .; G = -28%; H = .
SMILES: CCOC(=O)CCC(=O)N1CCNC(=O)C1
  A = 5%; B = 4.1%; C = 5%; D = .; E = 3%; F = 5%; G = -12%; H = .
SMILES: Cc1cccc(OCC(=O)Nc2ccc(NC(=O)c3ccco3)cc2)c1
  A = 4%; B = .; C = -5%; D = -71%[46.1 µM]; E = 3%; F = .; G = -3%; H = -20%[46.1 µM]
SMILES: O=C(COC(=O)Cc1c(Cl)cccc1Cl)NCCC1=CCCCC1
  A = 1%; B = -9.0%; C = -16%; D = 13%; E = ?; F = 3%; G = 3%; H = 10%
SMILES: CN(Cc1ccccn1)C(=O)CC1C(=O)NCCN1Cc1ccc(F)cc1Cl (stereo unspecified)
  A = -4%; B = .; C = -11%; D = .; E = -6%; F = .; G = -11%; H = .
SMILES: O=C(Nc1c(Cl)ccc2nsnc12)c1cccnc1
  A = -2%; B = -4.3%; C = ?; D = -10%; E = -8%; F = -5%; G = -2%; H = -1%
SMILES: O=S(=O)(c1ccccc1)N1CCCN(S(=O)(=O)c2ccccc2)CC1
  A = 10%; B = .; C = 0%; D = .; E = 2%; F = .; G = -12%; H = .
SMILES: CCCCc1nc(SCCN2CCOCC2)c2c(=O)n(C)c(=O)n(C)c2n1
  A = 2%; B = .; C = 8%; D = 22%[46.1 µM]; E = -2%; F = .; G = 0%; H = 12%
SMILES: COc1ccnc(Oc2ccccc2)c1C#N
  A = 0%; B = 1.5%; C = -9%; D = 4%; E = 5%; F = 15%; G = 0%; H = 28%
SMILES: CCc1ccccc1OCC(=O)OCC(=O)c1c(N)n(C)c(=O)n(C)c1=O
  A = 4%; B = .; C = .; D = 6%[46.1 µM]; E = -2%; F = .; G = 12%; H = ?
SMILES: Nn1c(COc2ccccc2F)nnc1SCC(=O)NC1CCCC1
  A = -3%; B = .; C = 5%; D = -15%; E = 1%; F = .; G = -21%; H = 10%
SMILES: O=C1CN(C(=O)COC(=O)CCc2ccccc2O)c2ccccc2N1
  A = -22%; B = .; C = .; D = 10%; E = 6%; F = .; G = -14%; H = 8%
SMILES: COc1ccc(-c2cc(C(=O)OCC(=O)Nc3ccc4c(c3)OCO4)c3ccccc3n2)cc1
  A = -17%; B = -1.9%; C = -11%; D = -23%; E = 4%; F = -79%; G = 7%; H = -16%
SMILES: COc1ccc(Cn2ccc3nc(C)c(C(=O)N4CCN(c5ccccc5)CC4)cc3c2=O)cc1
  A = .; B = -2.0%; C = .; D = .; E = .; F = 1%; G = -25%; H = 5%[46.1 µM]
SMILES: COc1ccc(-c2csc3ncnc(N4CCN(c5cccc(Cl)c5)CC4)c23)cc1
  A = 14%; B = .; C = 6%; D = ?; E = -8%; F = .; G = ?; H = ?
SMILES: COc1cc(C(=O)NNC(=O)c2ccc(NC(=O)C(C)(C)C)cc2)cc(OC)c1OC
  A = -4%; B = .; C = -5%; D = -20%[46.1 µM]; E = 0%; F = .; G = -8%; H = 25%
SMILES: Cc1cc(Cl)n2c(nc3ccccc32)c1C#N
  A = ?; B = .; C = .; D = 4.5µM*; E = -34%; F = .; G = 7.9µM*; H = ?
SMILES: O=C(C(Cc1ccccc1)n1cccc1)N1CCCCCC1 (stereo unspecified)
  A = -5%; B = -2.5%; C = -14%; D = .; E = -8%; F = -9%; G = -23%; H = .
SMILES: O=C(OCC(=O)c1cccs1)c1ccc([N+](=O)[O-])o1
  A = ?; B = .; C = -33%; D = 13%[46.1 µM]; E = -2%; F = .; G = -2%; H = 21%[46.1 µM]
SMILES: CS(=O)(=O)c1ccc2nc(NC(=O)C3CC(=O)N(c4ccccc4)C3)sc2c1 (stereo unspecified)
  A = 4%; B = .; C = -9%; D = -9%[46.1 µM]; E = -1%; F = .; G = -30%; H = 5%
SMILES: CCOC(=O)CNC(=O)C1COc2ccccc2O1 (stereo unspecified)
  A = -11%; B = .; C = 3%; D = 21%; E = 0%; F = .; G = 1%; H = -11%
SMILES: COc1ccc(NC(=S)N(CCc2c(C)[nH]c3ccccc23)Cc2ccco2)cc1
  A = -12%; B = -2.8%; C = -16%; D = 13µM*; E = 4%; F = -24%; G = -9%; H = ?
SMILES: CC(C)N(C(=O)COC(=O)[C@@H]1CC(O)CN1S(=O)(=O)c1ccccc1[N+](=O)[O-])C(C)C (stereo partly specified)
  A = -7%; B = 0.0%; C = -2%; D = 0%; E = 14%; F = 6%; G = -7%; H = ?
SMILES: Cc1cc(NC(=O)Cn2ccsc2=N)c([N+](=O)[O-])cc1C
  A = -4%; B = .; C = .; D = ?; E = -5%; F = .; G = -13%; H = ?
SMILES: CCCn1c(CNS(=O)(=O)c2ccc(C)cc2)nc2ccccc21
  A = -7%; B = -2.7%; C = -3%; D = -12%; E = -6%; F = 3%; G = 4%; H = 4%
SMILES: CCc1ccc(N2C(=O)CC(N(CC3CCCO3)C(=O)/C=C/C(=O)O)C2=O)cc1 (stereo unspecified)
  A = -1%; B = -1.2%; C = 4%; D = ?; E = -12%; F = 9%; G = -18%; H = 3%
SMILES: CCCCC(=O)Nc1nc(C)c(C(C)=O)s1
  A = 12%; B = -0.1%; C = -4%; D = .; E = -1%; F = -12%; G = 28%; H = .
SMILES: COCCN1C(=O)c2cc(C(=O)Nc3ccc(C)c(F)c3)ccc2C1Nc1ccc(C)c(F)c1 (stereo unspecified)
  A = -13%; B = 1.4%; C = 23%; D = 1%; E = 10%; F = -9%; G = -16%; H = 29%
SMILES: Cc1ccc(NC(=O)c2cnc(N3CCN(c4ccccn4)CC3)c3ccccc23)c(Br)c1
  A = 7%; B = .; C = .; D = ?; E = -10%; F = .; G = 6.3µM*; H = ?
SMILES: O=C(CCNc1n[nH]c(=O)[nH]c1=O)N1CCOCC1
  A = 9%; B = -1.1%; C = -2%; D = 1%; E = 1%; F = 15%; G = -21%; H = 2%
SMILES: Cc1cc(Cl)c(S(=O)(=O)NC2CCCC2)cc1OCC(N)=O
  A = -20%; B = .; C = 5%; D = 15%; E = -3%; F = .; G = 32%[activator]; H = -19%
SMILES: COc1ccccc1C(=O)NCC(c1cccnc1)N(C)C (stereo unspecified)
  A = -9%; B = 4.5%; C = -2%; D = 3%&3%; E = -2%; F = -6%; G = -14%; H = -11%
